# Resorufin autofl: compound fluoresces in the resorufin spectral region. Compound fluorescence, resorufin region 547/598 nm, buffer; active compounds read high. max dye-equivalent concentration, M. hit rate 0.04% among 59,000. AID 588; active = above 10 nM dye equivalent; inconclusive = 1 to 10 nM; inactive = 1 nM or less; a few of its hits are not listed in these tables; further: highest value over a series up to 38 µM
#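 Read-out: intrinsic compound fluorescence at ex 547/em 598 nm after 15 min at RT in pH 8.0 Tris (100 mM). Values expressed as resorufin-equivalent concentration from per-plate standard series.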
# A488 fluor: compound fluoresces in the A488 spectral region; compound autofluorescence, A488 spectral region, dye equivalency; active compounds read high; AID 591; hit rate 0.1% among 59,000; max dye equivalency, M; active = above 10 nM dye equivalent; inconclusive = 1 to 10 nM; inactive = 1 nM or less; about half of its hits are not listed in these tables;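 further: highest value over a series up to 38 µM; compound alone in buffer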
#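 Intrinsic compound fluorescence is measured in 100 mM Tris buffer at pH 8.0 following 15 min incubation at room temperature. Intensities at 480 nm excitation/540 nm emission are calibrated to an on-plate A488 concentration series, giving dye-equivalent concentrations.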
# A647 autofl: A647 region autofluorescence; max dye-equivalent concentration, M; 59,000 tested, under 10 active; Compound fluorescence, A647 channel (570/671 nm), Tris buffer; active means above 1 µM dye equivalent; inconclusive means 0.1 to 1 µM; inactive means 0.1 µM or less;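 further: values scaled relative to a standard on each plate; highest value over a series up to 38 µM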
#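 Spectral profiling of library compounds in pH 8.0 Tris: 15 min room-temperature incubation, single ex/em pair (570/671 nm), response normalized to Alexa 647 equivalents.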
# AID923: qHTS Assay for Allosteric/Competitive Inhibitors of Caspase-1: Spectroscopic Profiling in AFC Spectral Region; compound fluorescence, AFC spectral region (405/520 nm); almost no hit is shown here; Potency, µM (doses to about 57.5 µM), without a hit: at the top dose fluorescence increase, most hits filed as activators; hit rate 1.1% among 75,000; active means well fitted activation curve with a large enough effect; inconclusive means small, poorly fitted or top-dose-only effect;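 further: potency means the concentration at half of the fitted maximal effect; 0% is about no effect; scaled to a free AFC standard on each plate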
#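 Titrations up to 57 uM read every 20 sec for 3 min (405/520 nm) with 50 nM caspase 1 and 5 uM Ac-WEHD-AFC, pH 7.5 HEPES buffer. Fluorescence-vs-time intercept gave baseline, scaled against on-plate AFC standard.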
# TSHR ag: activates the human thyroid stimulating hormone receptor; HEK293-CNG-TSHR cells (CNG channel as cAMP sensor), membrane potential dye, cAMP; Potency, µM (highest dose often 57.1 µM), inactives show top-dose activation, actives largely listed as activators; hit rate 0.48% among 73,000; AID 926; active = well fitted activation curve of enough size with the parental cells flat; inconclusive = any curve in the parental cells; inactive = parental cells flat and receptor cells flat or falling; further: potency means the concentration at half of the fitted maximal effect; % of control where 0% means no effect; weak receptor curves with flat parental cells got no call and are not listed
# Target sequence (P16473 whole entry, looked up): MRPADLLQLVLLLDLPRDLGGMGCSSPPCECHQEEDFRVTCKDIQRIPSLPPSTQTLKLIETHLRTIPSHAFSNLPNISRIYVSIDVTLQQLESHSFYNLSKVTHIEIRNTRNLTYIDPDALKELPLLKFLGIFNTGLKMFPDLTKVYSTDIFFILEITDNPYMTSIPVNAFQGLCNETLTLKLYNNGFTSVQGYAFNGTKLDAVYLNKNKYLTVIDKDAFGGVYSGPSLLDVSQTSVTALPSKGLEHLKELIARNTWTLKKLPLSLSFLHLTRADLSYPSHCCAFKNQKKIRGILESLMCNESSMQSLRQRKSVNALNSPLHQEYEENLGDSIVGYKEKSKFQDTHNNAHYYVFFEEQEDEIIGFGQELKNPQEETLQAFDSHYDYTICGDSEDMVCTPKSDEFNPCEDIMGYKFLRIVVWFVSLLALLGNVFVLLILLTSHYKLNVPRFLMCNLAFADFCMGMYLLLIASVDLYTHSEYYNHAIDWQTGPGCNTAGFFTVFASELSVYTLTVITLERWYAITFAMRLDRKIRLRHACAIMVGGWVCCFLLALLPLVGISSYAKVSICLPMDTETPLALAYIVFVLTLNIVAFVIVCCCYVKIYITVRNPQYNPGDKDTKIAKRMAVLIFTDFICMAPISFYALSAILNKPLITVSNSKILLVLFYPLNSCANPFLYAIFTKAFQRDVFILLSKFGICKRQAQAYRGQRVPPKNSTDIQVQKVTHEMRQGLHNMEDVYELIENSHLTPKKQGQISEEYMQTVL
#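 cAMP rise detected as CNG-channel membrane depolarization by fluorescent dye (emission 590 nm), 30 min after compound, following 60 min dye loading containing 100 uM RO 20-1724 at room temperature. Cells: TSHR/CNG HEK 293, with parental CNG HEK 293 as control.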
# * marks the source's active call; other numbers are inactive results; i = inactive; ? = inconclusive; . = not tested or not shown; [ ] = remark or other dose. This is a subset, so the mix of outcomes need not match the whole.
# Under each structure – Resorufin autofl | A488 fluor | A647 autofl | AID923 | TSHR ag
CCCn1c(SCC(=O)Nc2ccccc2-c2ccccc2)nnc1-c1ccoc1C
  i | i | 1e-09 | 0.1% | ?
Fc1ccc(-c2cc(C(F)(F)F)nc(N3CCCCC3)n2)cc1
  i | i | 2.9e-08 | 0.7% | 9%[11.4 µM]
Cc1ccccc1CN1C2=NCCN2C(=O)C2=C1CCN(Cc1ccccc1)C2
  i | i | 3.1e-08 | 0.3%[11.5 µM] | 6%[11.4 µM]
Cc1cccn2c(=O)c3cc(C(=O)N4CCc5ccccc54)n(C)c3nc12
  i | i | 5.3e-09 | 7.8% | -3%
CCOC(=O)CSc1nc(C)c(C(=O)OCC)s1
  i | i | 2.3e-08 | -0.6% | 11%
CCOC(=O)C1CCN(C(=O)CCCN2C(=O)c3ccccc3C2=O)CC1
  i | i | 5.9e-08 | -0.5% | 17%
COc1ccccc1Nc1nc(N)nc(CN2CCN(c3ccccc3)CC2)n1
  i | i | 1e-09 | 0.2% | 15%
COc1ccccc1CNC(=O)c1ccoc1C
  i | i | 1e-09 | -1.5% | 15%
CC1=C(C)CS(=O)N(S(=O)(=O)c2ccc(Cl)cc2)C1 (centres undefined)
  i | i | 1e-09 | 0.1% | -13%
c1coc(-c2nnc3n2C2(CCCC2)Cc2ccccc2-3)c1
  i | i | 2.8e-08 | 0.8% | ?
O=C(NCCN1CCOCC1)C1CCN(Cc2ccccc2O)CC1
  i | i | 4.3e-09 | 0.1% | ?
COc1ccc(CSc2nc(N3CCOCC3)c3c(c2C#N)CC(C)(C)OC3)cc1
  i | i | 3.1e-09 | 1.0% | .
O=C(C(Cc1ccccc1)n1cccc1)N1CCN(c2ncccn2)CC1 (centres undefined)
  . | . | . | 2.0% | 3%
CCCCCCC(=O)Cc1cc(OC)c(OC)cc1C=C(C(=O)OCC)C(=O)OCC
  . | . | . | 1.0%[11.5 µM] | 11%[11.4 µM]
CCCC(=O)NCCCc1nc2ccccc2n1CCC
  i | i | 3.9e-09 | -0.4% | -2%[11.4 µM]
Cc1ccc2oc(=O)c3cnn(CC(=O)N4CCCc5ccccc54)c3c2c1
  . | . | . | -1.9% | 11%
S=c1[nH]nc(CSc2nc3ccccc3s2)o1
  . | . | . | 1.5% | 10%
CC(C)(N)C(=O)N[C@@H]1C(=O)N2[C@@H]1SC(C)(C)[C@H]2C(=O)O
  i | i | 2e-09 | 0.8%[11.5 µM] | -5%[11.4 µM]
O=C(NCc1ccco1)C(c1cccs1)N(C(=O)Cc1cccs1)c1ccccc1 (centres undefined)
  i | i | 2.3e-08 | 0.8% | ?
CC(=O)Nc1nc2ccccc2n1CCOc1ccccc1
  i | i | 2.2e-08 | 0.6% | 9%
Cc1cccc(-c2cc3nc4c(c(N5CCC6(CC5)OCCO6)n3n2)CCCC4)c1
  i | i | 2.3e-08 | -1.2% | 24%
CCN(CC)CCCNC(=O)C1c2ccccc2C(=O)N1Cc1ccc(C)cc1 (centres undefined)
  i | i | 7.9e-09 | -1.6% | 20%
Cc1nc2ccccn2c1P(=O)(N1CCCCC1)N1CCCCC1
  i | i | 4.8e-08 | 1.3% | 1%
COc1ccc(OC)c(C2C(C(=O)O)c3ccccc3C(=O)N2C)c1 (centres undefined)
  i | i | 6.6e-09 | 0.3% | -4%[11.4 µM]
c1ccc2c(c1)nnn2Cc1nnc2sc(-c3ccncc3)nn12
  i | i | 3.4e-08 | 1.1% | 6%
CC1CCCCN1S(=O)(=O)c1ccc(NC(=O)CSc2nnnn2C)cc1 (centres undefined)
  i | i | 8.1e-09 | -0.6% | -5%[11.4 µM]
O=C(NCCN1CCNCC1)c1ccccn1
  i | i | 3.6e-08 | 0.0% | -2%
COC(=O)c1ccc(C)c(NC(=O)CN(c2ccc3c(c2)OCO3)S(C)(=O)=O)c1
  i | i | 3.2e-08 | 0.4% | -5%
O=C(c1cccs1)N1CCN(S(=O)(=O)Cc2ccccc2)CC1
  i | i | 1e-09 | 1.9% | -10%
C=C(C)COc1ccc(-c2[nH]ncc2Oc2ccccc2OC)c(O)c1
  i | i | 3.3e-08 | 1.7% | 24%

# Looked up above:
# For A647 autofl, COC(=O)c1ccc(C)c(NC(=O)CN(c2ccc3c(c2)OCO3)S(C)(=O)=O)c1 shows 3.2e-08
# For A647 autofl, CCN(CC)CCCNC(=O)C1c2ccccc2C(=O)N1Cc1ccc(C)cc1 (centres undefined) shows 7.9e-09

# New compounds follow.
# Under each structure – Resorufin autofl | A488 fluor | A647 autofl | AID923 | TSHR ag
CCCCn1c(=O)n(Cc2cccc(F)c2)c(=O)c2c1ncn2Cc1ccco1
  i | i | 1e-09 | 1.8% | .
O=C(Nc1cnn(Cc2ccc(Cl)c(Cl)c2)c1)c1nc2ncccn2n1
  i | i | 1.9e-08 | 0.2% | 6%
CCCCn1c(SCC(=O)N2CCCCC2)nc2cc(S(N)(=O)=O)ccc21
  i | i | 4.5e-09 | -1.6% | 6%[11.4 µM]
CC1=C(C(=O)OC2CCCCC2)C(c2ccco2)C2=C(CC(C)(C)CC2=O)N1 (centres undefined)
  . | . | . | 6.8% | 22%
CS(=O)(=O)c1ccc(Cn2c3c(c4cc(F)cc(F)c42)CCC[C@H]3CC(=O)O)cc1
  . | . | . | -3.0% | -9%
O=C(Nc1ccc2c(c1)OCCO2)NC1CCCCC1
  . | . | . | -0.9% | 11%[11.4 µM]
CC(=O)Nc1cccc(N2C(=O)CC(Cc3ccccc3)C2=O)c1 (centres undefined)
  . | . | . | 2.0% | -11%
CN1CC(=O)N(CCOc2ccccc2)C1=O
  i | i | 1e-09 | 0.9% | -2%
COc1ccc(S(=O)(=O)N2CC(O)CC2C(=O)OCC(=O)Nc2ccc(Cl)cn2)cc1 (centres undefined)
  i | i | 4.3e-08 | -2.0% | -2%
C#CCSc1nc(-c2cccs2)ccc1C#N
  i | i | 1e-09 | 6.2% | ?
COc1cc(C2C(C#N)=C(C)NC3=C2C(=O)CC(C)(C)C3)cc(OC)c1O (centres undefined)
  i | i | 3.6e-09 | 1.1% | 3%[11.4 µM]
Cc1cc(C(=O)N2CCN(c3ccccc3)CC2)no1
  i | i | 1e-09 | -0.7% | 3%
COc1ccc(C(=O)N(CCCO)C(C)C(=O)NC2CCCCC2)cc1OC (centres undefined)
  i | i | 1e-09 | 0.7% | ?
CCC(C)(C)n1nnnc1C(c1ccc(C)cc1)N1CCCC1 (centres undefined)
  i | i | 1e-09 | -1.4% | ?
O=C1C2=CC[C@H]3C(=O)N(Cc4ccccc4)C(=O)[C@@H]3[C@@H]2[C@H](O)[C@@H]2O[C@H]12
  . | . | . | 4.7%[11.5 µM] | -8%[11.4 µM]
O=C(NCCN1CCOCC1)c1ccc(-n2c(=O)c(=O)[nH]c3ccccc32)cc1
  . | . | . | 2.2% | -7%
c1ccc2c(c1)oc1c(NCCN3CCOCC3)ncnc12
  i | i | 9.5e-09 | 0.3% | 4%
O=c1c(CCc2ccccc2)nc2cncnc2n1-c1ccccc1
  i | i | 1e-09 | 1.3% | ?
Cc1ccc2cc(CN(CCCN(C)C)C(=O)NCc3ccccc3)c(=O)[nH]c2c1C
  i | i | 1.9e-09 | 0.5% | 17%
C[C@H]1CN(CCO)CCN1c1ccccc1
  i | i | 2.2e-08 | 1.3%[11.5 µM] | -5%[11.4 µM]
N#Cc1c(/N=C/c2ccco2)oc(-c2ccccc2)c1-c1ccccc1
  i | i | 1e-09 | 0.1% | 2%
CCCCCCCN
  . | . | . | 1.6% | -12%
O=C(O)C1C2C=CC(C2)C1C(=O)Nc1ccc(C(=O)N2CCCCC2)cc1 (centres undefined)
  i | i | 1e-09 | -1.7% | -1%
Cc1ccc2c(c1)CCCN2C(=O)c1c(C)noc1C
  i | i | 4.1e-08 | -0.5% | .
Cc1c(C(=O)Nn2cnnc2)oc2ccccc12
  i | i | 3.7e-08 | -1.8% | 0%
Cc1ccc(Cl)cc1NC(=O)C1CCCN(S(=O)(=O)c2c(C)noc2C)C1 (centres undefined)
  i | i | 3e-09 | 0.0% | -2%
N#Cc1ccc(CN2CC[C@@]3(CCCN(C(=O)c4cc(C(F)(F)F)cc(C(F)(F)F)c4)C3)C2)cc1
  i | i | 1.4e-08 | 2.8% | ?
COc1ccc2c(=O)c(C(=O)NCCc3ccc(OC)c(OC)c3)c[nH]c2c1
  i | i | 4.8e-09 | 1.4% | 15%
COc1ccccc1OCCOCCn1cnc2ccccc2c1=O
  i | i | 5.4e-09 | -2.2% | 1%
C=CCNC(=O)CSc1nc2sc(C)c(C)c2c(=O)[nH]1
  . | . | . | -0.7% | 3%

# Complete entries as entered above:
# Listed for C#CCSc1nc(-c2cccs2)ccc1C#N : Resorufin autofl: i; A488 fluor: i; A647 autofl: 1e-09; AID923: 6.2%; TSHR ag: ?
# Listed for CC(=O)Nc1cccc(N2C(=O)CC(Cc3ccccc3)C2=O)c1 (centres undefined) : Resorufin autofl: .; A488 fluor: .; A647 autofl: .; AID923: 2.0%; TSHR ag: -11%

# (more compounds)
# Under each structure – Resorufin autofl | A488 fluor | A647 autofl | AID923 | TSHR ag
COc1ccc2oc(=O)c(NC(=O)C3CCCCC3)cc2c1
  i | i | 1e-09 | 0.5% | 7%
NC[C@@H]1O[C@H](O[C@@H]2[C@H](O[C@@H]3O[C@H](CO)[C@@H](COC[C@H]4O[C@@H](CN)[C@@H](O)[C@@H](O)[C@@H]4N)[C@@H]3O)[C@@H](O)[C@@H](N)C[C@H]2N)[C@@H](N)[C@H](O)[C@@H]1O
  i | i | 4.1e-08 | -1.5%[25.7 µM] | -18%[25.6 µM]
CCc1nnc(NC(=O)c2ccc(S(=O)(=O)N3CCCCCC3)cc2)s1
  i | i | 3.7e-08 | -0.4% | -1%
CC(C)Cc1ccc(/C(=N/O)C(=O)O)s1
  i | i | 2.7e-08 | -0.2% | 11%
COCCNC(=O)C(OC(=O)c1ccco1)c1ccccc1OC (centres undefined)
  i | i | 1e-09 | 0.6% | -1%
CCOc1ccccc1-c1nc(C(N)=O)c2[nH]c(=O)n(-c3ccccc3)c2n1
  i | i | 4.1e-09 | 1.9% | ?
Cc1cc(C)cc(C(=O)N2CCC(C(N)=O)CC2)c1
  i | i | 1e-09 | 1.2% | -7%
c1ccc(-c2cc(-c3nc(-c4cccnc4)no3)c3ccccc3n2)cc1
  . | . | . | -1.1% | 1%
COc1cccc(C(=O)c2cc3ccc(O)cc3oc2=O)c1
  i | i | 1.9e-09 | 2.2% | -4%
N#Cc1cnn(Cc2ccccc2)c1/N=C/N1CCOCC1
  i | i | 1e-09 | -1.5% | 15%
O=C1C2ON(c3ccccc3)C(c3ccncc3)C2C(=O)N1c1ccccc1 (centres undefined)
  i | i | 1e-09 | . | .
CCc1nc2ccccc2c(C(=O)OCC(=O)NCc2ccco2)c1C
  i | i | 2.6e-09 | 0.5% | 25%
CC(=O)Nc1ccc(-c2ccccc2)s1
  i | i | 4.1e-08 | 0.0% | -1%
CC(=O)Nc1cc(C(N)=O)c(Cl)cc1Cl
  . | . | . | 0.6% | -3%
COCCn1c(SCC(=O)c2ccc3c(c2)OCCO3)nnc1C(C)C
  i | i | 6.8e-08 | 0.4% | 4%
O=C(Nc1ccc(C2CCCCC2)cc1)C1CCN(c2ncccn2)CC1
  i | i | 3.9e-08 | 0.3% | 5%
Cc1cc(-c2nc3c4c5c(sc4[nH]c(=O)n3n2)CCC5)c(C)o1
  i | i | 9.5e-09 | 0.7% | -10%
O=c1[nH]c2ccccc2nc1NCCN1CCOCC1
  i | i | 4.8e-08 | 1.4% | 0%
C=CCn1c(SCC(=O)N2CC(=O)Nc3ccccc32)nc2scc(-c3cccs3)c2c1=O
  i | i | 1.2e-08 | -1.8% | -6%
COC(=O)CSc1cc(C)nc(NC(C)=O)n1
  i | i | 1.7e-08 | 0.7% | 1%
Cc1nnc(N2CCN(c3ccccc3)CC2)[nH]c1=O
  i | i | 4.2e-08 | 0.7% | 5%
O=C(Nc1ccc2c(c1)OCCO2)C1CCCN(S(=O)(=O)c2cnc[nH]2)C1 (centres undefined)
  . | . | . | -2.7% | 2%
